Vaccinia Venus: inhibitors of vaccinia virus (Venus reporter). Potency, µM (highest dose often 36.5 µM), without a hit: at the top dose activity change, negative = inhibition, actives largely listed as inhibitors. hit rate 0.46% among 330,000. Vaccinia virus Venus reporter expression, fluorescence. AID 720580; active means well fitted inhibition curve with a large enough effect; inconclusive means small, poorly fitted or top-dose-only effect; inactive means no such curve, though single readings can be large or run the other way; tested in A549 cells; further: nearly all actives have a fitted effect of over 30% in size; inactives centre near -10
VACV mCherry inh: vaccinia inhibition (mCherry reporter); Vaccinia virus mCherry reporter infection, fluorescence; about a quarter of the inactives have no number; AID 720579; Potency, µM (titrated, usually from 36.5 µM), inactives show top-dose activity change, negative = inhibition, usual class: inhibitors; hit rate 0.63% among 310,000; active = well fitted inhibition curve with a large enough effect; inconclusive = small, poorly fitted or top-dose-only effect; inactive = no such curve, though single readings can be large or run the other way; tested in A549 cells; further: nearly all actives have a fitted effect of over 35% in size; inactives centre near -10
The depositor's hits bear a star; i = inactive; u = inconclusive; x = not tested or not shown; & = joins results of further samples; [ ] = dose if it differs, or a comment. On the % scale 0 is the no-effect control and ±100 the full control effect; potency means the concentration at half of the fitted maximal effect.

Values in the order – Vaccinia Venus, VACV mCherry inh
> C[N+]1(CCOC(=O)C2(c3ccccc3)CCCC2)CCCCC1
→ -1.3%, -7.4%
> COCc1[nH][nH]c(=O)c1C=Nc1ccc(F)cc1F
→ -13.8%, -8.5%
> Cc1ccc(C)c(COC(=O)c2cc([N+](=O)[O-])ccc2N2CCOCC2)c1
→ -21.0%, u
> C[C@@H]1CCCCO[C@@H](CN(C)Cc2ccc3c(c2)OCO3)[C@@H](C)CN([C@H](C)CO)C(=O)c2cc(N(C)C)ccc2O1
→ -11.3%, -6.0%
> CCOC(=O)C1=C(C)NC(C)=C(C(=O)OC)C1c1cccc(Cl)c1Cl (centres undefined)
→ -17.5%&-27.5%, -27.3%
> Cc1nc2c(C)c(C)c(C)c(C)c2nc1C
→ -0.7%, i
> Cc1ccc(NC(=O)C2CCC(CNS(=O)(=O)c3ccc4c(c3)CCCC(=O)N4)CC2)c(C)c1 (centres undefined)
→ -21.4%, -20.6%
> O=C(O)c1c(Cl)c(Cl)c(Cl)c(Cl)c1C(=O)N1CCCCCC1
→ -1.7%, 7.6%
> Cc1ccc(C(=O)NC(NCC2CCCO2)C(Cl)(Cl)Cl)cc1 (centres undefined)
→ -10.4%, -13.8%
> Cc1nc2ccccc2c2oc(C(=O)NC3CC3)cc12
→ -4.2%, -2.3%
> Cc1ccccc1N(C(=O)c1ccccn1)C(C(=O)NCc1ccccc1)c1ccncc1 (centres undefined)
→ -18.1%, -11.7%
> O=C(NCC(=O)N1CCN(c2ccccc2O)CC1)c1ccco1
→ -14.8%, u
> Cc1ccc(NC(=O)c2ccc3nc[nH]c3c2)cc1C
→ -3.7%, -5.3%
> CCOC(=O)c1oc2ccccc2c1NC(=O)CN1CCN(C)CC1
→ -11.4%, -26.3%
> CN(C(=O)CSc1nnc(NCc2ccccc2)s1)C1CCS(=O)(=O)C1 (centres undefined)
→ -11.2%, i
> CCCCn1c(N)c(N(CCC(C)C)C(=O)C2CCCN(C(=O)c3ccc(Cl)cc3)C2)c(=O)[nH]c1=O (centres undefined)
→ -15.7%, -18.1%
> CCOC(=O)c1cccc(NC(=O)c2c(O)[nH]c(=O)[nH]c2=O)c1
→ -7.2%, -13.6%
> O=C(COC(=O)COc1ccc(Cl)cc1Br)NC1CCCC1
→ -1.7%, -9.6%
> COc1cc(N)c(Br)cc1C(=O)O
→ -13.0%, i
> O=C(Cn1c(=O)n(Cc2ccc(Cl)cc2)c(=O)c2cccnc21)Nc1ccccc1C(F)(F)F
→ 2.1%, -17.3%
> CN(C)C1=NC(=O)/C(=C\c2ccccc2)S1
→ -9.8%, i
> Cc1cccc(C)c1NC(=O)N1CC=C(n2c(=O)[nH]c3ccccc32)CC1
→ -14.2%, x
> N#Cc1c(-c2ccccc2)nc2n1CCS2
→ -8.9%, 1.6%
> Cc1ccc(-c2nnn3c2nc(NCCc2ccc(S(N)(=O)=O)cc2)c2ccccc23)cc1
→ -16.9%, -8.6%
> C/C(=N/N=C/c1ccccc1O)c1ccccc1O
→ -5.3%, u
> COc1cccc(CN(C(=O)c2cccc(C)c2)C2CCS(=O)(=O)C2)c1 (centres undefined)
→ -6.9%, -4.2%
> CCC(Sc1nc(N)c(NC(=O)c2ccc(OC)cc2)c(=O)[nH]1)C(=O)O (centres undefined)
→ 6.0%, i
> C=C1C(=O)OC2CC3(C)OC3CCC(C)=CC(OC(C)=O)C12 (centres undefined)
→ u, -18.5%
> COc1ccccc1CCNC(=O)c1ccoc1C
→ -5.6%, -7.5%
> O=c1[nH]c(CN(CCc2ccccc2)S(=O)(=O)c2ccc(Cl)cc2)nc2ccccc12
→ -14.8%, i

Some of these compounds in order of count of non-hydrogen atoms, smallest number first:
Values in the order – Vaccinia Venus, VACV mCherry inh
> COc1cc(N)c(Br)cc1C(=O)O
→ -13.0%, i
> C/C(=N/N=C/c1ccccc1O)c1ccccc1O
→ -5.3%, u
> Cc1ccc(NC(=O)c2ccc3nc[nH]c3c2)cc1C
→ -3.7%, -5.3%
> O=C(COC(=O)COc1ccc(Cl)cc1Br)NC1CCCC1
→ -1.7%, -9.6%
> O=C(NCC(=O)N1CCN(c2ccccc2O)CC1)c1ccco1
→ -14.8%, u
> CCCCn1c(N)c(N(CCC(C)C)C(=O)C2CCCN(C(=O)c3ccc(Cl)cc3)C2)c(=O)[nH]c1=O (centres undefined)
→ -15.7%, -18.1%

The results go on:
Values in the order – Vaccinia Venus, VACV mCherry inh
> COc1ccc2cc(C(N)=O)c(=Nc3ccccc3)oc2c1
→ -16.1%, i
> COc1ccc(CCNc2oc(-c3ccco3)nc2C#N)cc1
→ -12.4%, -19.2%
> O=C(CNC(=O)c1ccco1)OCc1ccc(Br)cc1
→ 1.5%, i
> Cc1ccc(S(=O)(=O)NCCS(=O)(=O)N2CCN(c3ccccc3)CC2)cc1
→ -3.3%, -12.4%
> CC(=O)N1CCN(c2ccc(N=Cc3c(O)n(Cc4ccccc4)c(=O)[nH]c3=O)cc2)CC1
→ -9.1%, x
> CC(NC(=O)CN1C(=O)NC2(CCCCC2)C1=O)c1ccc(S(N)(=O)=O)cc1 (centres undefined)
→ -7.9%, -3.4%
> Cc1ccc(NC(=S)N2CCN(S(C)(=O)=O)CC2)cc1
→ -23.0%, -5.1%
> Cc1c(C(=O)N2CCCCC2)c(S(=O)(=O)Nc2ccc(F)cc2F)c(C)n1C
→ -3.7%, -15.6%
> CC1=C(C(=O)Nc2ccc(F)cc2)C(c2ccc(C)o2)C2=C(CC(C)(C)CC2=O)N1 (centres undefined)
→ 2.9%, -9.8%
> CCOC(=O)c1c(C(=O)OCC)c(C)n(CCc2ccc(OC)c(OC)c2)c1C
→ -20.2%, -11.9%
> CC(C)Sc1cc(N2CCOCC2)nc(-c2ccc(Cl)cc2)n1
→ -10.7%, x
> O=C(CSc1nc(-c2ccccc2)nc2c1Cc1ccccc1O2)N1CCCCC1
→ -9.9%, -10.5%
> COc1ccc(CCCc2n[nH]c(=S)n2C)cc1C
→ -17.2%, -4.9%
> COc1ccc(C)cc1NS(=O)(=O)c1cc(Br)cc2c1N(C(C)=O)C(C)C2 (centres undefined)
→ -3.8%, -14.6%
> COc1ccc(C2CCN(Cc3cccnc3)CC2O)cc1 (centres undefined)
→ -12.9%, i
> Cc1cccc(Cn2c(SCc3ccc(C(=O)NCc4cccs4)cc3)nc3ccncc32)c1
→ -29.3%, -29.1%
> COc1ccc(N2C(=O)CSCC2=O)cc1OC
→ 1.9%, -2.6%
> COc1cccc(CN(C)C(=O)CNC(=O)c2ccc(-c3ccccc3)cc2)c1OC
→ -17.2%, -9.3%
> COc1ccc(CNC(=O)c2sc3nc4n(c(=O)c3c2C)CCCC4)cc1
→ -4.4%, -10.9%
> CCOC(=O)c1nc2cc3n(c(C)c-2c1C)C(C)C(C)=C3C (centres undefined)
→ -12.0%, x
> CCc1ccccc1NC(=S)N(Cc1cccnc1)Cc1ccco1
→ 0.5%, i
> COc1cccc(C(=O)NC(=S)N2CCN(c3ccc(C(F)(F)F)cc3[N+](=O)[O-])CC2)c1
→ -19.3%, -20.9%
> Cc1cc(C)cc(NC(=O)c2cccc3c2C(=O)N(C2CCCCC2)C3)c1
→ -2.7%, -7.2%
> ON=C1c2ccccc2-c2ccc(O)cc21
→ u, u
> CCN(CC)CCCNC(=O)c1nn(C)c2c1CS(=O)(=O)c1ccccc1-2
→ -11.5%, -3.9%
> O=C(c1cccc(C(F)(F)F)c1)C1CCCN(Cc2cccc(OCCO)c2)C1 (centres undefined)
→ -18.3%&-20.2%, u
> O=C(O)C1C2C=CC(C3CC23)C1C(=O)O (centres undefined)
→ -15.5%, -16.7%
> O=C(NC(=S)NCc1ccccc1)C1CC1
→ -10.0%, -4.5%
> O=C(Nc1ccccc1N1CCOCC1)c1ccc(OCc2cscn2)cc1
→ -11.2%, 12.2%
> Cc1cc(C)n2nc(SCc3ccc(C#N)cc3)nc2n1
→ -18.4%, -6.3%
> CS(=O)(=O)N1CCCC(C(=O)Nc2ccc(F)cc2F)C1 (centres undefined)
→ 1.6%, i
> CCC(=O)c1ccc(OCC(=O)OCC(=O)NCc2cccs2)cc1
→ -0.5%, -10.9%
> CCNc1nc(NCC)n2c(SCC(=O)Nc3ccccc3F)nnc2n1
→ -4.3%, -6.0%
> CCCN(C(=O)CSc1nnnn1C)C1CCS(=O)(=O)C1 (centres undefined)
→ -3.9%, -8.0%
> CC(C)c1nnc(NC(=O)CCS(=O)(=O)Cc2ccccc2)s1
→ -11.4%, -20.3%
> CCCCNC(=S)N/N=C/c1cccc(OCC)c1O
→ -3.0%, u
> C[C@@H]1CN([C@H](C)CO)C(=O)CCCn2nncc2CO[C@H]1CN(C)C(=O)Nc1ccc(N2CCN(C)CC2)cc1
→ -18.1%, i
> c1ccc(Nc2nc3ccccc3o2)cc1
→ -9.3%, i
> O=C(Nc1ccc(N2CCCCC2)cc1)c1cncc(Br)c1
→ -16.4%, -24.3%
> CCCC(=O)N(CCN1CCOCC1)c1nc2c(C)cccc2s1
→ -3.4%, i
> O=C1C=C(c2cccc(Br)c2)C[C@@H](c2ccc3c(c2)OCO3)C1
→ -5.9%, u
> Cc1nn(CC(=O)N/N=C/c2ccc3c(c2)OCO3)c(C)c1Br
→ -10.1%, -21.2%
> Fc1ccc(N2CCN(C3=Nc4cccc5cccc3c45)CC2)cc1
→ -19.0%, -23.0%
> O=C(COc1ccc2c(c1)C(=O)CC1(CCCCC1)O2)NCc1ccccn1
→ -14.4%, i
> O=C(CC(O)c1ccccc1)Nc1ccccn1 (centres undefined)
→ -14.3%, i
> CCCC(=O)Nc1cc(C(F)(F)F)ccc1N1CCOCC1
→ -3.6%, i
> CCCCOC(=O)Nc1cc(C)c(Cl)cc1OC
→ -11.9%, -8.5%
> O=C1/C(=C/c2cccc3ccccc23)CCCc2ccccc21
→ u, i
> CCOc1ccccc1Nc1ncnc2ccccc12
→ -14.3%, x
> CCC1Cc2[nH]c(=S)[nH]c(=O)c2C(c2ccc(Cl)cc2)O1 (centres undefined)
→ -6.7%, 13.4%
> COc1ccc(NC(=O)Nc2nnc(-c3ccccc3F)s2)cc1
→ -0.7%, i
> COc1c(F)c(F)c(C(=O)O)c(Nc2ccccc2)c1F
→ -6.4%, i
> O=c1[nH][nH]cc1C=Nc1ccccc1O
→ -14.2%, u
> CCOc1ccc(NC(=O)C/C(C)=N/NC(=O)Cc2ccc(Cl)cc2)cc1
→ -11.4%, -22.7%
> O=C(COC(=O)C1COc2ccccc2O1)NC1CCS(=O)(=O)C1 (centres undefined)
→ -13.3%, i
> Cc1csc(NC(=O)c2cccn2C)n1
→ -8.0%, i
> COc1ccc(NC(C)=O)cc1S(=O)(=O)Nc1ccc2c(c1)OCCO2
→ -7.6%, -3.6%
> N#Cc1ccc(OCC(=O)Nc2ccc3[nH]c(=O)[nH]c3c2)cc1
→ -6.0%, i
> NS(=O)(=O)c1ccc(CNC(=O)c2ccc(Cl)cc2[N+](=O)[O-])cc1
→ -1.0%, -11.0%
> O=C(Nc1cccc(C(=O)OCc2cc(=O)n3c4c(sc3n2)CCCC4)c1)c1cccc(F)c1
→ -14.2%, -17.5%

Further compounds:
Values in the order – Vaccinia Venus, VACV mCherry inh
> COc1ccc(NC(=S)NNC(=O)c2cccnc2)cc1OC
→ -4.2%, -22.9%
> CC(C)(C)c1ccc(C(=O)C[n+]2ccccc2Cl)cc1
→ -11.6%, -16.1%
> COc1ccc(Cn2c(C)nc([N+](=O)[O-])c2SCC(=O)O)cc1[N+](=O)[O-]
→ -14.3%, -7.4%
> O=C(CCc1ccccc1)NCCCN1CCOCC1
→ 1.1%, -6.6%
> c1ccc(C2CN3CCSC3=N2)cc1 (centres undefined)
→ -6.3%&-6.9%, i
> Cc1nc(-c2ccc(F)cc2)c(CC(=O)N2CCN(S(=O)(=O)c3cccc(F)c3)CC2)s1
→ -16.4%, -20.4%
> Cc1c(Cl)c([N+](=O)[O-])nn1CC(=O)NCCCN1CCOCC1
→ -8.7%, -2.0%
> Cc1cc(C(=O)COC(=O)c2ccc(O)cc2)c(C)n1Cc1ccco1
→ -6.1%, -1.8%
> COc1ccccc1C(=O)Nn1c(C)nc2ccccc2c1=O
→ -8.1%, -11.3%
> CCc1ccc(C2c3c(-c4cc(C)ccc4O)n[nH]c3C(=O)N2CCO)cc1 (centres undefined)
→ -5.3%, 1.3%
> Cc1nc(C)c(-c2csc(N)n2)s1
→ -13.6%, -6.9%
> O=C(Nc1ccccc1)c1cccc(=O)o1
→ -4.4%[7.34 µM], -17.5%[7.34 µM]
> O=C1CSC(=O)N1CC(O)COc1ccc(Cl)cc1 (centres undefined)
→ -11.9%, -9.0%
> CN(C)S(=O)(=O)c1ccc(Cl)c(NC(=O)COC(=O)CN2C(=O)NC(C)(C)C2=O)c1
→ -11.6%, i
> COc1ccc(NC(=O)Nc2sc(NS(=O)(=O)c3ccccc3)nc2C)cc1
→ -10.1%, -15.7%
> COC(=O)c1c(C(=O)OC)c(C)n(Cc2cccnc2)c1C
→ -10.2%, -19.3%
> c1ccc(CCn2nnc3ccccc32)cc1
→ -1.2%, -4.4%
> Cc1ccc(F)cc1NC(=O)COC(=O)COc1ccc(C#N)cc1
→ -5.2%, i
> Cc1ccc(N(C(=O)c2csnn2)C(C(=O)NC(C)(C)C)c2cccnc2)cc1 (centres undefined)
→ -1.6%, -4.6%
> Cn1c(Cc2cccs2)nnc1SCc1nc2ccccc2[nH]1
→ -13.5%, x
> COc1ccc(NC(=O)C(OC(=O)c2cnc(C)cn2)c2ccccc2)cc1Cl (centres undefined)
→ -7.0%, -12.5%

Screens (PubChem BioAssay)
